Vif TR-FRET: HIV-1 Vif–A3G interaction blockers – biochemical, TR-FRET, GST-Vif 1-94, biotin-A3G peptide, dose response retest, primary screen (AID 1117319) | TR-FRET GST-Vif / biotin-A3G peptide binding; higher % means a stronger effect; test concentration not given here; strong numbers were not always called active | inhibition, %, or IC50 in µM where a hit was titrated | 260,000 compounds, 0.57% hits;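 active = above the screen mean plus three standard deviations and confirmed in dose response; inconclusive = results disagree or hit not tested in dose response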;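 note: Vif residues 1-94 fused to GST binding biotinylated APOBEC3G peptide 110-148; 0% = full assay without inhibitor and 100% = GST in place of GST-Vif; retest series ran down from 100 µM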
HNF4A DNA FP: change in binding of human HNF4 alpha to DNA | P41235 | HNF4a-FITC DNA binding, fluorescence polarization, 1 h | activity change, % at 10 µM | 360,000 compounds, 0.3% hits; in the data active = activity change above about 30%, passing the limit was not always enough;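 note: controls were the assay level and a saturating level of protein; the project sought stronger binding though the title names inhibitors; some compounds called inactive have numbers as strong as hits; positive values seem to mean higher polarization but the record does not say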
Target sequence (P41235 whole entry, looked up): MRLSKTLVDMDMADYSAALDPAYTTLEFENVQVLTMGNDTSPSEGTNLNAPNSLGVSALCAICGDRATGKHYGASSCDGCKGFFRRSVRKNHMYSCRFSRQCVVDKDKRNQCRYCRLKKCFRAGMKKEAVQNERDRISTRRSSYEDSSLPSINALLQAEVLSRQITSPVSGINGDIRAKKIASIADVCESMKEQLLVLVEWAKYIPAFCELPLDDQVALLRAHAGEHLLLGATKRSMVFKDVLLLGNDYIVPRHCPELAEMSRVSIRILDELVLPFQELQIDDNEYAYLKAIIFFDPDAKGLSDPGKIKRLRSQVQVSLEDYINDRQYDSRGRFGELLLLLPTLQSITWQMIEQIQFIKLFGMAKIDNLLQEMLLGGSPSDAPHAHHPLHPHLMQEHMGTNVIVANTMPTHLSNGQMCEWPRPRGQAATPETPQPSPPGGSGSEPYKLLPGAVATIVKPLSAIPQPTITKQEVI
UCH37 inh: blocks the human deubiquitinase UCH37; Q9Y5K5; purified proteasome/UCH37, Ub-AMC cleavage fluorescence; inhibition, % (concentration not given with the values); 330,000 compounds, 0.33% hits; AID 588478;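 active = mean of two replicates above 20%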;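 note: 0% = compound-free wells with enzyme and 100% = wells lacking proteasome; stock transfer was 100 nL into about 20 µL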
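System: Proteasome-associated human UCH37 deubiquitinase; Input: 0.15 nM proteasome in added enzyme buffer; Also added: Ub-AMC substrate from 1 µM stock; Incubation: 30 min compound-proteasome preincubation then 25 min substrate reaction, room temperature; Detection: fluorescence, ex 355 nm, em 460 nm; Read-out: % inhibition of Ub-AMC cleavage fluorescence; Benchmarks: no-proteasome and no-compound wells.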
FGF22 binding: binders of recombinant human FGF22 by thermal shift; Q9HCT0; SYPRO orange fluorescence; percent of sucrose octasulfate shift, DMSO zero; calls only at 9.99 µM; 340,000 compounds, 1.5% hits;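 active = melting point raised past a set limit in the mean and every replicate; inconclusive = no clear call; three in four hits are not shown here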
MLL AF4-AF9 inh: blocks AF4 peptide binding to human AF9; P42568; AlphaScreen, biotin-AF4 peptide binding to FLAG-AF9; inhibition, % at 10 µM; 350,000 compounds, 0.47% hits; AID 651704;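 active = every replicate reaching a set inhibition limit, whatever the replicate mean, cut at about 25% in these data; inconclusive = mean inhibition reaches that limit but some replicates miss it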;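 note: 0% = plate neutral control median and 100% = total signal loss; the record names both 10 and 1 µM as test concentration; the first replicate is given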
Target sequence (P42568 whole entry, looked up): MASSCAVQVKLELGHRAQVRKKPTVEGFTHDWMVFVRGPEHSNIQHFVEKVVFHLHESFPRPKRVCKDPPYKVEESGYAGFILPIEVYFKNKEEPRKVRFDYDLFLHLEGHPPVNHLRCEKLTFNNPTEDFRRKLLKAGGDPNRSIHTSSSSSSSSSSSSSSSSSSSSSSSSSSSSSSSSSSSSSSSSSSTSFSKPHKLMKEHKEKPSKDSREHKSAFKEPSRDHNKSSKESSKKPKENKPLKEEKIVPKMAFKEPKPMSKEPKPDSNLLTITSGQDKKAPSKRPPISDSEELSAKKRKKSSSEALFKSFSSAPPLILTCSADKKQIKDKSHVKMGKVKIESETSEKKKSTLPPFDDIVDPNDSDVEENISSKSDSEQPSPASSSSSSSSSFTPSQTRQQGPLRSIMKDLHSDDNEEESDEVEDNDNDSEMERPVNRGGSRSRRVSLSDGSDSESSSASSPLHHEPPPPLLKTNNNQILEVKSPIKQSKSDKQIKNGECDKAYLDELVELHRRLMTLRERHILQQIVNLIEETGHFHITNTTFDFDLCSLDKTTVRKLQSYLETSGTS
RanGTP-Impb inh: disruptors of Ran-importin-beta complex formation – biochemical, FRET, CFP-Ran, YFP-importin-beta, homogeneous, primary screen; cell-free CFP-Ran/YFP-importin-beta FRET ratio; inhibition, % (concentration not given with the values); 300,000 compounds, 1.1% hits;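 active = most replicates above 15%; inconclusive = exactly half above 15%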;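 note: 0% = DMSO wells and 100% = Ran loaded with GDP instead of GTP; wells of about 40 µL received 100 nL stock; the first replicate is given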
Ecoli growth: E. coli growth inhibition. 330,000 compounds, 0.21% hits. AID 1053175. OD600 absorbance (test concentration not listed). Escherichia coli growth, OD600, 23 h; stronger effect = lower value;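 active = OD600 absorbance below the run mean of sample wells minus 3.6 SD, in any replicate, cut at about 0.56 in these data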;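 note: stock transfer was 300 nL into about 60 µL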
* = called active by the depositor; i = inactive; ? = inconclusive; · = no result given; & = joins results of further samples. This is a subset; the hit share may differ from the screen's.

SMILES,Vif TR-FRET,HNF4A DNA FP,UCH37 inh,FGF22 binding,MLL AF4-AF9 inh,RanGTP-Impb inh,Ecoli growth
O=S(=O)(c1ccc(Cl)cc1)N1CCN2CCCC2C1 (stereo not given),·,-0.2,2.2,i,-1.6,-0.4,0.675
CCOC(=O)C1=CN(Cc2ccco2)S(=O)(=O)N(C)C1c1ccc2ccccc2c1 (stereo not given),-4.2%,-0.6,1.5,i,1.5,·,0.718
CCOc1ccc(CCNC(=O)c2ccc(F)c(S(=O)(=O)N3CCOCC3)c2)cc1OCC,·,-0.1,1.2,i,-1.0,0.1,0.718
CCOC(=O)c1[nH]c(C)c(C(=O)OCC(=O)N2CCCCC2C)c1C (stereo not given),7.3%,4.3,3.2,·,·,-0.4,0.718
N#Cc1c(-c2ccccc2)c(-c2ccccc2)nn(CC(=O)NNC(=O)Nc2ccc(Cl)c(Cl)c2)c1=O,-1.4%,2.0,0.1,·,·,-3.1,0.783
COc1cccc(C(=O)NCC(=O)N/N=C/c2c(C)[nH]c3ccccc23)c1,·,1.6,·,i,1.2,4.2,·
Cc1cc(C)n(Cc2cnc(N3CCOCC3)s2)n1,4.8%,2.1,-1.2,i,0.0,1.7,0.698
Cc1ccc(S(=O)(=O)N2CCOCC2)cc1C(=O)NCc1ccc(F)cc1,2.2%,2.8,-3.4,·,·,-4.7,0.661
O=C1CC(c2ccccc2)Oc2ccccc21 (stereo not given),·,-0.1,·,i,-1.5,·,·
COc1cccc(N2C(=O)C3CCCN3C2c2ccc(Cl)cc2)c1 (stereo not given),-0.2%,3.5,0.6,i,-0.6,11.3,0.749
CC(C)(C)C(=O)N1CCN(c2ncccc2C(F)(F)F)CC1,-7.6%,-4.3,7.4,i,-4.5,3.5,0.631
Cc1cc(=O)oc(C)c1C(=O)NCc1ccco1,6.0%,0.3,4.1,·,·,-2.6,0.67
COC(=O)Cc1ccc(NC(=S)NN2CCOCC2)cc1,·,-2.5,2.0,i,-14.2,0.9,0.665
Cc1cccc2nc(C(F)(F)F)nc(=O)n12,5.1%,-2.3,-11.8,·,·,-0.4,0.675
Cn1c(Cc2ccccc2)nnc1SCC(=O)Nc1cccc(S(=O)(=O)NC2=NCCCCC2)c1,·,-2.2,4.3,i,-2.7,2.2,0.694
CC1CCN(C(=O)c2ccc(SCc3ccccc3F)c([N+](=O)[O-])c2)CC1,·,0.5,0.6,·,3.6,?,0.692
CC1Cc2cc(/C(O)=C3/C(=O)C(=O)N(CCCn4ccnc4)C3c3ccc([N+](=O)[O-])cc3)ccc2O1 (stereo not given),·,0.3,·,i,13.2,·,·
COc1ccc(-c2csc(C(C)(O)c3cccnc3)n2)cn1 (stereo not given),·,2.6,·,i,-13.2,·,·
CCOc1ccc(N(Cc2cc3cc(OC)ccc3[nH]c2=O)S(C)(=O)=O)cc1,-32.8%,-1.5,-65.1,·,·,0.9,0.679
Cc1ccc(S(=O)(=O)N2CCCCC2)cc1NC(=O)COC(=O)Cc1ccc(Cl)cc1,·,0.9,0.9,·,·,-2.2,0.722
CCCN1C2CCCC1CC(NC(=S)Nc1cccc(C)c1C)C2 (stereo not given),32.9%,0.5,3.1,i,3.6,0.2,0.684
CCc1nc(C)cn1S(=O)(=O)c1cc(Cl)c(OC)cc1Cl,-0.4%,2.2,4.3,·,·,-2.4,0.659
CCSc1ccc(C(=O)Nc2ccc(Br)cn2)cc1[N+](=O)[O-],·,2.3,3.0,i,-2.2,2.5,0.644
Nc1ncnc2c1ncn2[C@@H]1O[C@H](CNS(=O)(=O)CCCCl)[C@@H](O)[C@H]1O,-2.6%,0.9,0.8,i,-1.7,·,0.698
COc1cc2ncnc(NCc3cccc(Cl)c3)c2cc1OC,2.0%,4.1,4.8,i,1.3,2.1,0.68
COc1ccc(N2CCN(C(=O)c3ccc(C)cc3Cl)CC2)cc1,6.5%,-4.6,2.2,·,·,-1.5,0.685
O=C(CCn1c2c(c3ccccc31)CCCC2)NNC(=O)c1ccc([N+](=O)[O-])cc1,·,-3.9,5.6,i,1.2,2.9,0.698
Cc1ccc(CN2C(=O)CCC2C(=O)NC2CC2)cc1 (stereo not given),27.1%,-1.8,2.2,·,·,3.6,0.712
CN(C)C=NC(=O)c1ccc([N+](=O)[O-])c(CS(=O)(=O)c2ccc(Cl)cc2)c1,8.2%,4.1,2.9,·,·,-2.7,0.75
CSCC[C@@H](C(=O)NCCCCCCCCCCC(=O)N1CCNCC1)n1cc(CCO)nn1,·,4.9,1.4,i,-0.2,·,·
N/C(=N\N=C\c1ccnc2ccccc12)SC1CC(=O)N(c2ccc(Br)cc2)C1=O (stereo not given),0.9%,1.8,·,·,·,-4.0,·
S=c1[nH]nc(-c2ccccc2)n1/N=C/C=C/c1ccco1,·,1.5,·,i,4.2,-0.9,·
CC(=O)Nc1ccc(NC(C)=O)s1,-5.4%,-4.0,0.4,·,·,4.7,0.686
COc1ccc(-c2cn(-c3ccc(OC)cc3)c(=S)[nH]2)cc1,28.9%,1.4,6.6,·,·,6.4,0.696
CCn1c(SC)nnc1-c1nnc(SC)n1CC,6.4%,-0.5,3.9,·,·,-1.3,0.743
CC1(C)CC(=O)C(C=Nc2ccc(O)c(N=CC3=C(O)CC(C)(C)CC3=O)c2)=C(O)C1,-5.5%,-0.2,7.5,i,1.1,·,0.707
Cc1c(C#N)c(NC(=O)C(C)C)n(Cc2ccccc2)c1C,-13.8%,5.0,0.5,i,-0.2,4.6,0.591
COc1cccc(CC(=O)Nc2cccc3ccccc23)c1,-2.0%,0.5,1.6,i,0.4,0.8,0.681
COc1ccc(NC(=O)CN(C)C(=O)c2ccc(S(=O)(=O)N3CCOCC3)cc2)cc1,-5.4%,-2.1,·,i,-1.5,·,·
CC1C/C(=C/c2ccncc2)C(=O)/C(=C/c2ccncc2)C1 (stereo not given),25.8%,0.2,3.2,i,-20.4,5.0,0.649
Cc1ccc(S(=O)(=O)N2C[C@H]3C(=O)C[C@@H](c4ccccc4)N(S(=O)(=O)c4ccc(Br)cc4)[C@H]3C[C@H]2c2ccccc2)cc1,·,-4.9,·,i,-4.3,·,·
Cc1cc(C)n2nc(C(=O)OCC(=O)NC(=O)c3ccccc3)nc2n1,-6.2%,1.9,5.2,·,-0.6,3.7,0.7
CN(C(=O)COC(=O)CSc1ccc([N+](=O)[O-])cc1)c1ccccc1,-11.0%,-0.6,4.2,i,5.9,·,0.69
COCc1nnc(NC(=O)CCCCCN2C(=O)c3ccccc3C2=O)s1,-1.2%,3.0,4.9,·,·,-1.7,0.712
Cc1ccc(C(=O)COC(=O)c2ccc(Cl)c(N)c2)s1,0.1%,1.3,2.1,i,-1.4,·,0.662
N#CC1=C(N2CCOCC2)/C(=C\c2ccccc2)CC1,-2.5%,1.1,-17.4,·,14.5,-5.8,0.651
Cc1ccc(C(=O)c2cc3c(cc2[N+](=O)[O-])OCCO3)cc1,11.6%,1.8,1.6,i,9.2,1.3,0.711
CN1CCCN(S(=O)(=O)c2ccc(Cl)c(Cl)c2)CC1,4.8%,3.3,2.3,i,-1.3,-1.8,0.637
CN1C(=O)C(C)(C)c2cc(S(=O)(=O)N(C)Cc3ccccc3)ccc21,·,-3.4,0.9,i,-4.0,0.6,0.671
CC(C)c1ccc(NC(=O)C2CC2c2ccccc2)cc1 (stereo not given),·,1.1,2.6,i,-1.5,-1.9,0.701
O=C(Nc1cccc(F)c1)c1cc(S(=O)(=O)N2CCC3(CC2)OCCO3)ccc1F,0.5%,·,4.6,i,0.8,2.5,0.636
CCO[C@H]1OC(C(=O)N2CCOCC2)=C[C@@H](c2ccc3c(c2)OCO3)[C@@H]1CCCO,2.6%,-1.6,2.3,i,-1.1&-5.3,-0.2,·
COc1cc([N+](=O)[O-])ccc1-c1ccc(/C=N/NC(=O)OC(C)(C)C)o1,-11.1%,20.0,·,i,0.4,0.4,·
Cc1cc(Br)ccc1NC(=S)Nc1cccc([N+](=O)[O-])c1,16.5%,-2.6,2.0,i,0.4,0.2,0.661
CN(C)C(=O)CSc1ccc(S(=O)(=O)N2CCCC2)cn1,0.6%,-2.3,-0.2,i,-1.3,·,0.615
CCCCNC(=S)N1CCn2cccc2C1c1ccc(F)cc1 (stereo not given),-9.0%,2.1,2.3,i,5.7,-0.1,0.682

Next section
SMILES,Vif TR-FRET,HNF4A DNA FP,UCH37 inh,FGF22 binding,MLL AF4-AF9 inh,RanGTP-Impb inh,Ecoli growth
COc1cccc(N2C(=NC(=O)CCC3CCCC3)SC3CS(=O)(=O)CC32)c1 (stereo not given),·,-0.2,2.2,i,-21.8,?,0.701
N#CC1=C(SCc2ccccc2)NC(=O)C(C#N)C12CCCC2 (stereo not given),-1.0%,-0.1,3.4,·,·,1.9,0.737
CC1=C(C(=O)N(C)C)C(c2cccc(Cl)c2)NC(=O)N1 (stereo not given),2.8%,0.2,0.6,·,·,-1.4,0.716
CCN(CCO)C(=O)c1ccc2nc(Cc3cccc(Cl)c3)oc2c1,·,-2.0,4.9,i,-1.0,8.6,0.716
CC(C)[C@H](NC(=O)N1CCn2c1nc1ccccc12)C(=O)N[C@H](Cc1ccccc1)C(=O)O,·,2.9,3.8,i,-1.7,2.3,0.768
CN(CC(=O)Nc1ccccc1Cl)C(=O)c1cccc(S(=O)(=O)N2CCN(Cc3ccccc3)CC2)c1,-2.2%,3.3,3.2,i,-24.0,·,0.699
CCCCN(C(=O)c1cc(-c2ccco2)nc2ccccc12)c1c(N)n(CCC)c(=O)[nH]c1=O,16.4%,-18.8,-7.6,i,-2.4,·,0.716
CC(=O)C1=C(c2ccccc2)NC(=O)NC1c1cccs1 (stereo not given),·,-1.9,4.7,i,-0.6,2.6,0.64
CCNc1nc(NC(C)C)nc(Oc2ccc(=O)n(C)n2)n1,2.4%,-0.7,1.5,i,-1.8,-1.6,0.697
Cc1ccc(S(=O)(=O)NC(=O)NCCCCNC(=O)NS(=O)(=O)c2ccc(C)cc2)cc1,-5.3%,-3.0,3.0,·,·,-0.4,0.689
CCCCN1CC[C@H]2C=CC[C@@H](C(=O)NCc3ccc(OC)cc3)[C@H]2C1=O,·,5.4,3.4,i,-1.9,0.1,·
CCC(=O)NC(=S)Nc1ccc(NC(=O)COc2ccc(Cl)cc2Cl)cc1,-9.8%,5.8,1.4,i,4.0,-3.2,0.686
CCC(=O)N1CCN(c2cc(NCC3CCCO3)c(F)cc2[N+](=O)[O-])CC1 (stereo not given),7.5%,-1.1,11.2,i,3.5,3.0,0.702
COc1cccc(NC(=O)C2(C)CCN2C(=O)CC2CCCC2)c1 (stereo not given),·,1.1,·,i,-1.9,·,·
CCOc1cc(S(=O)(=O)Nc2cc(C)cc(C)c2)ccc1Cl,1.3%,2.1,3.4,·,·,-0.4,0.706
COC(=O)C1CCN(S(=O)(=O)c2cc3c4c(c2)CCN4C(=O)CC3)CC1,-3.1%,-1.3,3.5,·,1.9,2.0,0.705
Cc1cc(=O)n2nc(N3CCCC(C(=O)NCc4ccccc4Br)C3)sc2n1 (stereo not given),-2.0%,-3.0,2.7,i,-1.6,1.0,0.69
O=C(N/N=C/C1CC=CCC1)c1ccccc1O (stereo not given),64.1%,0.7,·,·,·,7.1,·
